NOMO-1 viab = STK33 inhibitor candidate reducing NOMO-1 cell viability; NOMO-1 AML viability, CellTiter-Glo luminescence, 72 h; inhibition, % (no concentration beside the values); actives 7.5% (n = 37,000); AID 2330;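 active = most replicates above 80%; inconclusive = exactly half above 80%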;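 note: wells of about 30 µL received 25 nL stock; 0% = median of vehicle wells and 100% = reference inhibitor level; the first replicate is given; inactives centre near 10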
The depositor's hits bear a star; ? = inconclusive.

SMILES	NOMO-1 viab
COc1ccc(NC(=O)N(C)C[C@H]2Oc3c(NC(=O)Nc4cccc5ccccc45)cccc3C(=O)N([C@@H](C)CO)C[C@H]2C)cc1	-4.6
Cc1noc(C)c1NC(=O)N(C)C[C@@H]1Oc2ccc(NC(=O)NC(C)C)cc2CC(=O)N([C@H](C)CO)C[C@H]1C	-6.1
COc1cccc(C(=O)Nc2ccc(NC(=O)C3CCCCC3C(=O)O)cc2)c1 (configuration not stated)	-13.6
CCCn1c(NCCCO)nc2ccccc21	-5.4
COc1ccccc1CNC(=O)c1ccc(Cl)c(S(=O)(=O)N2CCOCC2)c1	14.4
CCOc1ccc(NC(=O)C(C)Sc2nc3ccccc3c(=O)n2-c2cccc(C)c2)cc1 (configuration not stated)	30.7
C[C@H]1CN([C@@H](C)CO)C(=O)c2cccc(NS(=O)(=O)c3ccc(Cl)cc3)c2O[C@H]1CN(C)Cc1ccncc1	6.5
O=C1c2ccccc2C(=O)N1Cc1cc(NS(=O)(=O)c2ccccc2)ccc1Cl	22.8
CC(=O)Nc1ccc(NC(=O)CN(c2ccc(C)c(Cl)c2)S(C)(=O)=O)cc1	58.3
COc1ccc(CN(C)C[C@@H]2Oc3ccc(NC(=O)Cn4cnnn4)cc3CC(=O)N([C@H](C)CO)C[C@H]2C)cc1	-4.8
C[C@@H]1CN([C@H](C)CO)C(=O)Cc2cc(NS(=O)(=O)c3ccc(Cl)cc3)ccc2O[C@H]1CN(C)S(=O)(=O)c1ccc(Cl)cc1	21.6
C[C@H](CO)N1C[C@H](C)[C@@H](CN(C)S(=O)(=O)c2ccccc2)Oc2ccc(NC(=O)C3CCCCC3)cc2C1=O	28.5
Cc1ccc(S(=O)(=O)Nc2cccc3c2O[C@H](CN(C)S(=O)(=O)c2ccc(C)cc2)[C@H](C)CN([C@@H](C)CO)C3=O)cc1	-2.8
C[C@@H]1CCCCO[C@@H](CN(C)S(=O)(=O)c2cccs2)[C@@H](C)CN([C@H](C)CO)C(=O)c2cc(NS(=O)(=O)c3ccc(F)cc3)ccc2O1	11.9
COc1ccc(NC(=O)Nc2ccc3c(c2)C(=O)N([C@H](C)CO)C[C@H](C)[C@H](CN(C)Cc2ccc(C(=O)O)cc2)O3)cc1	1.7
C[C@H]1CN([C@@H](C)CO)C(=O)c2cccc(NC(=O)CCCCCC(=O)Nc3ccccc3N)c2O[C@H]1CN(C)C(=O)Nc1ccccc1	10.1
CN(c1cccc(NC(=O)c2ccc(Cl)c(S(=O)(=O)N3CCOCC3)c2)c1)S(C)(=O)=O	7.7
C[C@@H]1CN([C@@H](C)CO)C(=O)Cc2cc(NC(=O)C3CC3)ccc2O[C@@H]1CN(C)C(=O)Nc1ccc(C(F)(F)F)cc1	6.7
C[C@@H]1CN([C@@H](C)CO)C(=O)Cc2cc(NC(=O)Nc3ccccc3)ccc2O[C@@H]1CN(C)C(=O)Nc1ccc2c(c1)OCO2	-9.3
CC(C)NC(=O)N(C)C[C@H]1Oc2ccc(NC(=O)CCN3CCOCC3)cc2C(=O)N([C@H](C)CO)C[C@@H]1C	7.7
Cc1ccc(S(=O)(=O)N(C)C[C@@H]2Oc3c(NS(=O)(=O)c4cn(C)cn4)cccc3C(=O)N([C@H](C)CO)C[C@@H]2C)cc1	12.9
CC(C)NC(=O)N(C)C[C@@H]1Oc2ccc(NS(=O)(=O)c3ccc(Cl)cc3)cc2C(=O)N([C@H](C)CO)C[C@@H]1C	-6.5
C[C@@H]1O[C@@H](OC[C@H]2O[C@@H](OCc3ccccc3)[C@H](O)[C@@H](O)[C@@H]2O)[C@H](O)[C@H](O)[C@H]1O	3.0
C[C@H]1CN([C@@H](C)CO)C(=O)Cc2cc(NC(=O)c3ccncc3)ccc2O[C@H]1CN(C)C(=O)NC1CCCCC1	0.4
Cc1cccc(N2C(=O)CC(Sc3nccc(C)n3)C2=O)c1 (configuration not stated)	13.2
O=C(CCCN1C(=O)c2cccc3cccc(c23)C1=O)N1CCN(c2ncccn2)CC1	19.9
O=c1c(O)c(-c2ccccc2)oc2cc(O)cc(O)c12	15.4
CCOC(=O)c1cccc(NC(=O)CSc2nc3ccccc3[nH]2)c1	50.8
COc1ccc(NC(=O)Nc2ccc3c(c2)C(=O)N([C@@H](C)CO)C[C@H](C)[C@@H](CN(C)Cc2ccc(C(=O)O)cc2)O3)cc1	-8.5
CC(N=Cc1c(O)ccc2ccccc12)C12CC3CC(CC(C3)C1)C2 (configuration not stated)	100.9*
COC(=O)c1c(C)oc2ccc(N(C(=O)c3ccncc3)S(=O)(=O)c3ccc(F)cc3C)cc12	50.9
C[C@@H]1CN([C@@H](C)CO)C(=O)c2cccc(NC(=O)NC3CCCCC3)c2O[C@@H]1CN(C)S(C)(=O)=O	-12.1
COc1ccc(S(=O)(=O)N(C)C[C@@H]2Oc3ccc(N(C)C)cc3CC(=O)N([C@@H](C)CO)C[C@@H]2C)cc1	10.6
CC(=O)C1=C(c2ccccc2)NC(=S)NC1c1cc(Cl)ccc1OCC(=O)O (configuration not stated)	21.0
O=C(O)CCNc1ncnc2c1oc1ccccc12	-9.9
C[C@@H]1CN([C@@H](C)CO)C(=O)c2cccc(NC(=O)c3nc4ccccc4s3)c2O[C@H]1CN(C)Cc1ccc(C(F)(F)F)cc1	?
C[C@H]1CN([C@@H](C)CO)C(=O)c2cccc(NS(=O)(=O)c3cccs3)c2O[C@H]1CN(C)CC1CC1	-6.7
C[C@@H]1CCCCO[C@H](CN(C)C(=O)c2ccncc2)[C@@H](C)CN([C@H](C)CO)C(=O)c2cc(NC(=O)C3CCCCC3)ccc2O1	-16.9
COc1ccc(OC)c(NC(=O)CSc2nc(-c3ccccc3)cc(=O)[nH]2)c1	5.5
Cc1cc(C(=O)Nc2cccc3c2O[C@@H](CN(C)S(C)(=O)=O)[C@@H](C)CN([C@@H](C)CO)C3=O)n(C)n1	7.0

Among those listed so far, two contain a thiophene ring, fused or not:
SMILES	NOMO-1 viab
C[C@@H]1CCCCO[C@@H](CN(C)S(=O)(=O)c2cccs2)[C@@H](C)CN([C@H](C)CO)C(=O)c2cc(NS(=O)(=O)c3ccc(F)cc3)ccc2O1	11.9
C[C@H]1CN([C@@H](C)CO)C(=O)c2cccc(NS(=O)(=O)c3cccs3)c2O[C@H]1CN(C)CC1CC1	-6.7

Next part.
SMILES	NOMO-1 viab
COc1ccc(OC)c(C(=O)CSc2nnc(-c3cccnc3)n2C)c1	-14.6
COC(=O)COc1cccc(NC(=O)c2ccc(Cl)cc2)c1	113.6*
Cc1ccc(S(=O)(=O)NCc2cccnc2)cc1	-5.4
COc1ccc(OCC(=O)Nc2ccc3oc(-c4cccc(I)c4)nc3c2)cc1	39.4
Cc1cc(C(=O)Nc2cccc3c2O[C@@H](CN(C)Cc2ccc(Oc4ccccc4)cc2)[C@H](C)CN([C@@H](C)CO)C3=O)n(C)n1	101.8*
COC(=O)c1cc(NC(=O)COc2ccc(Br)cc2)cc(C(=O)OC)c1	29.8
C[C@@H]1CN([C@H](C)CO)C(=O)c2cc(NC(=O)NC3CCCCC3)ccc2O[C@H]1CN(C)C(=O)Nc1ccccc1	5.6
Cc1cc(=O)oc2cc(OC(C)C(=O)Nc3ccc(Cl)c(C(F)(F)F)c3)ccc12 (configuration not stated)	4.9
C[C@@H]1CN([C@H](C)CO)C(=O)c2cc(NS(=O)(=O)c3ccc(Cl)cc3)ccc2O[C@@H]1CN(C)C(=O)Nc1ccccc1	13.7
COC(=O)c1ccccc1NC(=O)c1ccc(Cl)c(S(=O)(=O)Nc2ccccc2C)c1	34.9
COc1ccc(OC(C)C(=O)Nc2cc(C)ccc2OC)cc1 (configuration not stated)	9.7
C[C@@H]1CN([C@H](C)CO)C(=O)c2cccc(NS(=O)(=O)c3ccc(Cl)cc3)c2O[C@H]1CN(C)S(=O)(=O)c1cn(C)cn1	-0.2
COc1ccc(CN(C)C[C@@H]2Oc3ccc(NS(=O)(=O)c4cccs4)cc3C(=O)N([C@H](C)CO)C[C@@H]2C)cc1	10.1
COc1ccccc1CNc1cc(-c2nn3c(C)nnc3s2)ccc1C	4.0
COc1ccc(CN(C)C[C@H]2Oc3c(NC(=O)Nc4ccc(F)cc4)cccc3C(=O)N([C@H](C)CO)C[C@H]2C)cc1	5.4
CCN(CC(=O)Nc1ccccc1C(F)(F)F)S(=O)(=O)c1ccc(Cl)cc1	21.9
C[C@@H]1CN([C@H](C)CO)C(=O)c2cc(NS(=O)(=O)c3ccc(Cl)cc3)ccc2O[C@@H]1CN(C)S(=O)(=O)c1ccc(Cl)cc1	45.1
COc1ccc(S(=O)(=O)Nc2cccc3c2O[C@@H](CN(C)S(=O)(=O)c2c(C)noc2C)[C@H](C)CN([C@H](C)CO)C3=O)cc1	13.9
COc1ccc(S(=O)(=O)Nc2ccc3c(c2)C(=O)N([C@H](C)CO)C[C@H](C)[C@@H](CN(C)C(=O)Nc2ccccc2)OCCCC[C@@H](C)O3)cc1	16.9
O=C(COc1ccc2cc(Br)ccc2c1)Nc1cccc([N+](=O)[O-])c1	16.9
Cc1ccc(S(=O)(=O)Nc2ccccc2/C(O)=C(/C#N)c2nc3ccccc3n2C)cc1	6.6
NC(=O)c1ccccc1NC(=O)COc1ccc2oc3c(c2c1)CCCC3	20.7
Cc1ccc(NC(=O)CSc2nc3sc4c(c3c(=O)[nH]2)CCCC4)cc1[N+](=O)[O-]	18.7
CC(C)NC(=O)Nc1ccc2c(c1)CC(=O)N([C@H](C)CO)C[C@H](C)[C@H](CN(C)C(=O)Nc1ccc(C(F)(F)F)cc1)O2	-12.0
CC(C)NC(=O)Nc1cccc2c1O[C@H](CN(C)Cc1ccc(C(=O)Nc3ccccc3N)cc1)[C@H](C)CN([C@@H](C)CO)C2=O	139.4*
COc1cc(OC)cc(C(=O)Nc2ccc(S(=O)(=O)Nc3ncccn3)cc2)c1	-9.6
C[C@H](CO)N1C[C@H](C)[C@H](CN(C)Cc2ccc(C(=O)O)cc2)Oc2ccc(NC(=O)C3CC3)cc2CC1=O	-3.0
c1ccc(-c2cn3c4ccccc4n(CCN4CCOCC4)c3n2)cc1	13.2
C[C@H]1CN([C@@H](C)CO)C(=O)c2cc(N(C)C)ccc2O[C@H]1CN(C)Cc1ccccc1	5.5
C[C@H](CO)N1C[C@H](C)[C@H](CN(C)Cc2ccc(C(=O)O)cc2)Oc2c(NC(=O)c3ccc(-c4nccs4)cc3)cccc2C1=O	-7.3
C[C@@H]1CN([C@@H](C)CO)C(=O)c2cc(NC(=O)Nc3ccc4c(c3)OCO4)ccc2O[C@@H]1CN(C)S(=O)(=O)c1ccc(Cl)cc1	29.3
C[C@@H]1CN([C@H](C)CO)C(=O)Cc2cc(NC(=O)Nc3ccccc3)ccc2O[C@H]1CN(C)S(=O)(=O)c1cn(C)cn1	-0.3
C[C@@H]1CN([C@H](C)CO)C(=O)Cc2cc(NC(=O)C3CC3)ccc2O[C@@H]1CN(C)C(=O)Nc1ccc(C(F)(F)F)cc1	-4.7
C[C@@H]1CN([C@@H](C)CO)C(=O)c2cc(NC(=O)c3ccncc3)ccc2O[C@H]1CN(C)S(C)(=O)=O	17.0
COc1ccc(NC(=O)CN(C2CCCCC2)S(=O)(=O)c2ccc(C)cc2)cc1Cl	16.2
C[C@H](CO)N1C[C@H](C)[C@H](CN(C)S(=O)(=O)c2cccs2)Oc2ccc(NC(=O)c3ccncc3)cc2CC1=O	-5.2
COc1ccc(CN(C)C[C@H]2Oc3ccc(NS(=O)(=O)c4ccc(Cl)cc4)cc3C(=O)N([C@@H](C)CO)C[C@@H]2C)cc1	14.6
Cc1ccc(S(=O)(=O)Nc2ccc3c(c2)C(=O)N([C@H](C)CO)C[C@@H](C)[C@H](CN(C)Cc2ccc(Cl)c(Cl)c2)O3)cc1	103.9*
COC(=O)CSc1nnc2c3c4c(sc3nc(-c3ccccc3Cl)n12)CCCC4	18.3
O=C(O)COc1cccc(NC(=O)c2ccc(-c3ccccc3)cc2)c1	-13.5
C=CCn1c(N)cc(=O)nc1SCC(=O)N1c2ccccc2Sc2ccccc21	13.8
COc1ccc(S(=O)(=O)NCc2ccccn2)cc1C	-3.2
COc1ccc(C)cc1S(=O)(=O)N(C)CC(=O)Nc1ccccc1F	-23.3
Cc1ccc(S(=O)(=O)Nc2ccc3c(c2)CC(=O)N([C@@H](C)CO)C[C@@H](C)[C@@H](CN(C)S(=O)(=O)c2ccc(Cl)cc2)O3)cc1	23.3
O=[N+]([O-])c1ccc2nc(CSc3nc4ccccc4s3)[nH]c2c1	53.9
O=C(CSc1nnc(-c2cccs2)n1-c1ccc(Cl)cc1)c1ccc(Cl)cc1	21.8
S=c1[nH]ccn1CCc1ccccc1	14.1
COc1ccc(NC(=O)Nc2ccc3c(c2)C(=O)N([C@H](C)CO)C[C@@H](C)[C@H](CN(C)S(=O)(=O)c2ccccc2)O3)cc1	20.5
Cc1ccccc1NC(=O)CCC(=O)OC1CCC(C(C)(C)C)CC1 (configuration not stated)	92.8*
CN(Cc1ccccc1)C(=O)c1cccc(C(=O)N(C)Cc2ccccc2)c1	12.5
C[C@@H]1CN([C@H](C)CO)C(=O)c2cccc(NC(=O)C3CCOCC3)c2O[C@@H]1CN(C)CC1CCCCC1	5.7

Already shown: 7 of the compounds above.
SMILES	NOMO-1 viab
C=CCn1c(N)cc(=O)nc1SCC(=O)N1c2ccccc2Sc2ccccc21	13.8
COc1ccc(S(=O)(=O)NCc2ccccn2)cc1C	-3.2
COc1ccc(C)cc1S(=O)(=O)N(C)CC(=O)Nc1ccccc1F	-23.3
Cc1ccc(S(=O)(=O)Nc2ccc3c(c2)CC(=O)N([C@@H](C)CO)C[C@@H](C)[C@@H](CN(C)S(=O)(=O)c2ccc(Cl)cc2)O3)cc1	23.3
O=[N+]([O-])c1ccc2nc(CSc3nc4ccccc4s3)[nH]c2c1	53.9
O=C(CSc1nnc(-c2cccs2)n1-c1ccc(Cl)cc1)c1ccc(Cl)cc1	21.8
S=c1[nH]ccn1CCc1ccccc1	14.1

Not all compounds are listed; rates above refer to the full screens.
